GIV-Gai inh: blocks GIV peptide binding to rat Galpha-i3; Galpha-i3/FITC-GIV peptide fluorescence polarization, 90 min; active compounds read low; scaled: aluminum fluoride 0%, vehicle 100%; percent of control (FP), % (concentration not given with the values); 0.42% of 210,000 active;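 active = replicate mean at 85% of control or lower, very high polarization wells dropped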;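 also: wells of about 15 µL received 100 nL stock; the first replicate is given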
Target sequence (P08753 whole entry, looked up): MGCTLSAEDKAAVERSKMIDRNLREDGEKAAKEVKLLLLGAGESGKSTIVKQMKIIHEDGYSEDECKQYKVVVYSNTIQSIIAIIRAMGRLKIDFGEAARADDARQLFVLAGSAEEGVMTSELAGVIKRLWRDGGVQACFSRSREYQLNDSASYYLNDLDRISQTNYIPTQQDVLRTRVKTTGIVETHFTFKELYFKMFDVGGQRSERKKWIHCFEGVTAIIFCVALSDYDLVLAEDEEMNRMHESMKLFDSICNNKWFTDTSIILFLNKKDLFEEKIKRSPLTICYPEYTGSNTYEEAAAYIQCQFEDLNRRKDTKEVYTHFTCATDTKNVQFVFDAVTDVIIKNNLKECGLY
HCMV UL50-53 inh: disrupts HCMV UL50-UL53 complex binding; 0.15% of 190,000 active; AID 1918969; HTRF UL50-UL53 interaction, normalized percent inhibition; inhibition, % (no concentration beside the values);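 active = both replicates at 50% or more, plus weaker picks with an unusually low signal ratio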;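 also: stock transfer was 100 nL into about 20 µL; 0% = negative control wells and 100% = wells with untagged competitor protein; inactives centre near -12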
Sa growth 42C: inhibitors of Staphylococcus aureus growth at 42 °C | S. aureus RN4220 growth, OD600, 20 h; active compounds read low | relative growth, % (concentration not given with the values) | 0.53% of 170,000 active;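 active = growth at 42 °C up to 50% and 20 or more points under that at 30 °C, or under 10% at both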;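 also: 300 nL library stock went into each well; scaled to the means of positive and negative controls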
Sa growth 42C second temp: further read-out of Sa growth 42C, marked with its call; relative growth, %; measured here: growth at 30 °C;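 optical density after 20 h as mean of two plates; 100% = untreated growth and lower means inhibition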
The depositor's hits bear a star; . = not tested or not shown; & = joins results of further samples.

| molecule | Sa growth 42C second temp | Sa growth 42C | GIV-Gai inh | HCMV UL50-53 inh |
| --- | --- | --- | --- | --- |
| N#C/C(=C\c1ccc(Cl)cc1)S(=O)(=O)Cc1ccco1 | 78.3 | 95.8 | 103.6 | -7.8 |
| Cc1ccc(Sc2c(C)nn(-c3ccccc3)c2OC(=O)CC(C)C)cc1 | 38.6 | 70.9 | 99.1 | -1.1 |
| Cc1ccc(C(=O)COC(=O)c2cc(-c3ccc(Cl)cc3)nc3ccccc23)cc1 | 104.1 | 99.5 | 103.9 | 8.0 |
| Cc1ccc(C(=O)Nc2ccc3nc(N4CCN(C5CCCCC5)CC4)cc(C(=O)O)c3c2)cc1 | . | . | 107.5 | -1.6 |
| O=C(O)CSC(O)C(=O)c1ccccc1 (stereo not drawn) | 95.8 | 83.1 | . | 4.4 |
| O=C(/C=C/c1ccco1)OC(C(=O)Nc1ccc(F)cc1)c1ccccc1 (stereo not drawn) | 96.8 | 82.8 | . | -22.4 |
| CS(=O)(=O)c1sc(C(=O)Nc2ccccc2Cl)c2c1C=CCC2 | 79.7 | 87.1 | 102.0 | -46.3 |
| COc1ccc(-n2nc(C(=O)Nc3cc(C)ccn3)c3c4ccccc4n(C)c3c2=O)cc1 | 88.8 | 106.4 | 97.9 | -17.4 |
| O=C(Cc1ccccc1)NCCc1nc2ccccc2[nH]1 | 95.0 | 104.4 | 110.4&103.5 | 9.8&-19.4 |
| O=C(NCc1ccc2c(c1)OCO2)Nc1ccc(-c2noc(C3CCC3)n2)cc1 | . | . | 103.9 | -13.6 |
| CC1CCCN(S(=O)(=O)c2ccc(C(=O)Nc3ccccc3-c3nc4ccccc4[nH]3)cc2)C1 (stereo not drawn) | 92.5 | 100.3 | 99.2 | . |
| N#Cc1ccc(NC(=O)COC(=O)c2cccc(F)c2)cc1 | 84.6 | 89.6 | . | -3.8 |
| Cc1ccc(C(=O)Cn2cccn2)cc1 | . | . | 100.6 | -9.3 |
| COCCN1C(=O)c2ccccc2C(C(=O)Nc2ccc(C(=O)OC)cc2)C1c1cccs1 (stereo not drawn) | 94.1 | 88.8 | 100.1 | . |
| O=C(CCC1CCCC1)N1CCCC(c2nc(-c3ccc(F)cc3)no2)C1 (stereo not drawn) | 87.9 | 117.8 | 102.2 | -1.8 |
| CN(C)c1ccc(/C=C2\SC(=Nc3ccccc3)N(CCO)C2=O)cc1 | 83.5 | 101.6 | 281.0 | -42.0 |
| Cc1nnc(NCC(C)O)[nH]c1=O (stereo not drawn) | 95.1 | 91.4 | 104.3 | . |
| Cn1c(C(=O)N2CCCC2)cc2sccc21 | 91.8 | 98.3 | 107.2 | 4.0 |
| CCOc1ccc(Br)cc1S(=O)(=O)N(C)c1cccc(OC)n1 | 86.2 | 81.3 | . | -30.0 |
| CCCNC(=O)Cn1cnc2sc(C(=O)O)c(C)c2c1=O | . | . | 105.5 | -14.5 |
| C/C=C/C(=O)N1CCCC(c2nc(-c3cccc(OC)c3)no2)C1 (stereo not drawn) | 77.5 | 100.1 | 101.9 | -5.6 |
| O=C(O)c1cccc(NS(=O)(=O)c2cccc3cccnc23)c1 | 94.2 | 91.0 | 99.5 | -9.7 |
| COC(=O)C1=C(N)OC2=C(C(=O)CC(c3ccccc3)C2)C1c1cccs1 (stereo not drawn) | . | . | 106.7 | -12.5 |
| COc1ccc(Cl)cc1NC(=O)Cc1csc(-n2nc(C)cc2C)n1 | . | . | 97.8 | -22.5 |
| COC(=O)C(C)Sc1nnc2c3ccccc3n(Cc3ccccc3)c2n1 (stereo not drawn) | 93.7 | 107.8 | 101.5 | -1.1 |
| NS(=O)(=O)c1ccc(NNC(=O)/C=C/c2cccs2)cc1 | 87.2 | 91.0 | . | -78.0 |
| O=C(CSc1ccccc1C(=O)N(Cc1ccncc1)Cc1cccnc1)N1CCCC1 | 95.6 | 93.2 | . | -2.5 |
| Cc1oc2c(c1C(=O)Nc1ccc(F)c(F)c1)C1=NCCN1C=N2 | 92.4 | 90.0 | 104.1 | . |
| CC(NC(=O)CN1CCCc2ccccc21)c1ccccc1 (stereo not drawn) | 103.9 | 122.7 | . | 6.0 |
| CCc1nc(SCC(=O)O)c(C#N)cc1C | 104.2 | 108.3 | 102.1 | 4.1 |
| Cc1ccc(NC(=O)CNC(=O)Cn2c(C)cc3ccccc3c2=O)cc1F | 89.4 | 89.8 | 98.9 | -6.1 |
| CN1/C(=C2/SC(=S)N(c3ccccc3)C2=O)Sc2ccccc21 | 83.8 | 107.0 | 117.3 | . |
| Oc1c(C=NCc2ccccc2)[nH]c2ccc(Br)c(Cl)c12 | 28.8 | 62.7 | 225.2 | . |
| COc1cc(OC)cc(C(=O)Nc2cc(C(=O)NCc3ccco3)ccc2N2CC3CC(C2)c2cccc(=O)n2C3)c1 (stereo not drawn) | 80.4 | 86.8 | 106.8 | -10.7 |
| Cc1ccc(C(C)(O)C(CN2CCOCC2)c2ccccc2)cc1 (stereo not drawn) | . | . | 103.5 | -16.5 |
| Cc1nc2cc(-c3ccccc3)nn2c(C)c1CCC(=O)N1CCc2ccccc21 | 94.3 | 87.3 | 109.4 | . |
| C=CCN(CC=C)Cn1nc(Nc2ccccc2F)sc1=S | 56.9 | 70.7 | . | -31.3 |
| CCc1cnc2c(c1SCC(=O)NCc1ccccc1Cl)c(=O)n(C)c(=O)n2C | 88.5 | 155.1 | 103.6 | . |
| CCOC(=O)Nc1ccc2c(c1)N(C(=O)CNC)c1ccccc1CC2 | 86.1 | 96.2 | 101.4 | -33.6 |
| CCN(CC)C(=S)Oc1ccc(I)cc1 | 87.9 | 95.9 | 105.6 | -16.3 |
| COc1ccc(-c2cnc(C)o2)cc1S(=O)(=O)N1CCN(c2ccccn2)CC1 | . | . | 108.1 | -5.4 |
| CC(C)(C)NC(=O)CCC1COc2ccccc2O1 (stereo not drawn) | 95.3 | 99.0 | 104.6 | -9.3 |
| Fc1ccc(N=Cc2ccncc2)cc1F | 91.4 | 92.4 | . | -4.1 |
| O=C(CCCc1nnc(C(=O)Nc2ccccc2)s1)NCCc1c[nH]c2ccc(Cl)cc12 | . | . | 101.2 | -32.5 |
| COc1ccc(C2CC(c3ccccc3)=NN2C(=O)c2ccc(F)cc2)cc1 (stereo not drawn) | . | . | 101.5 | 7.2 |
| Cc1onc(-c2ccccc2)c1CN1C(=O)c2ccccc2S1(=O)=O | 85.2 | 103.9 | 96.9 | 3.3 |
| Cc1[nH]c2ccccc2c1C(=O)Cn1ccsc1=N | 82.3 | 84.0 | . | -17.2 |
| COc1ccc(NC(=O)Oc2ccccc2)cc1 | 85.5 | 96.9 | 92.2 | -9.8 |
| CCCn1c(C2CCCO2)nc2ccccc21 (stereo not drawn) | . | . | 107.7 | 0.6 |
| NC(=O)c1oc2ccccc2c1NC(=O)C12CC3CC(CC(C3)C1)C2 | 82.0 | 95.0 | 98.9 | -24.6 |
| CCCSc1nc2c(c(=O)[nH]1)CCC2 | . | . | 102.8 | -9.9 |
| CCOC(=O)c1c(NC(=O)CSc2nc(C)nc3sc4c(c23)CCC4)sc2c1CCC2 | . | . | 107.6 | 7.3 |
| Cc1ccccc1-c1nn2c(=O)cc(CN3CCN(S(=O)(=O)c4ccc(Cl)cc4)CC3)nc2s1 | 104.1 | 107.0 | 100.2 | . |
| CN(C)c1ccc(NC(=O)Cn2cc(S(=O)(=O)Cc3cccc(Cl)c3)c3ccccc32)cc1 | 92.7 | 103.5 | 99.5 | . |
| NC1CCC2CCCCC2C1 (stereo not drawn) | 94.7 | 79.8 | . | -13.4 |
| COc1ccc(-c2c(N)nc(-c3ccc(Cl)cc3)nc2SC)cc1 | 91.2 | 107.0 | 101.0 | -30.2 |
| O=C(NCC(=O)N1CCc2ccccc2C1)c1cccs1 | 84.0 | 81.1 | . | -15.5 |
| COc1cccc(/C=N\NC(=O)c2n[nH]c3c2CCC3)c1 | 87.0 | 94.1 | 102.5 | -30.6 |
| CC(C)C(=O)Nc1ccccc1C(=O)OCC(=O)c1ccc2c(c1)OCCO2 | 96.1 | 98.6 | . | -32.6 |
| Brc1cccc2c3c4n(c12)CC1COC4(CCC3)O1 (stereo not drawn) | 83.9 | 95.0 | 100.6 | -9.4 |

New compounds follow:
| molecule | Sa growth 42C second temp | Sa growth 42C | GIV-Gai inh | HCMV UL50-53 inh |
| --- | --- | --- | --- | --- |
| COc1cc(/C=C2/SC(=S)N(C)C2=O)ccc1Oc1nc(N2CCOCC2)nc(N2CCOCC2)n1 | . | . | 107.7 | -22.2 |
| Cc1ccc(-c2nc3scc(CCNS(=O)(=O)N(C)C)n3n2)cc1 | 90.3 | 98.8 | 107.7 | -18.0 |
| CCOC(=O)c1ccccc1NC(=O)Cn1cc(S(=O)(=O)c2ccc(C)c(C)c2)c(=O)c2ccc(C)nc21 | . | . | 147.7 | -5.4 |
| CS(=O)(=O)NCc1ccccc1Cl | 92.2 | 104.5 | 107.1 | -10.3 |
| CCC(=O)N1CCc2cc(S(=O)(=O)NC(CC(C)C)C(=O)NCc3ccc(C)cc3)ccc21 (stereo not drawn) | 72.3 | 99.3 | 104.2 | 11.0 |
| CCOC(=O)c1noc2ncnc(Nc3cccc(C)n3)c12 | . | . | 109.8 | 1.2 |
| CCc1ccc(NC(=O)N(C)CCc2noc(-c3ccc(C)cc3)n2)cc1 | . | . | 108.6 | -31.2 |
| O=C(NC1CCCCC1)c1ccc2c(c1)N(Cc1cccc(Cl)c1)C(=O)c1ccccc1S2=O (stereo not drawn) | 87.5 | 95.8 | 98.6 | . |
| Nc1ccccc1SCc1ncc(C(F)(F)F)cc1Cl | 94.8 | 103.5 | 101.7 | 0.4 |
| Cc1ccc(C)c(N2CCN(C(=O)CCc3nnc4n(C)c(=O)c5ccccc5n34)CC2)c1 | 85.0 | 96.0 | 111.2 | 10.4 |
| CC(C)(O)C(=O)N=Nc1c(O)[nH]c2ccccc12 | 107.7 | 73.6 | 103.3 | -41.0 |
| CCCN(CCC)S(=O)(=O)c1ccc(C(=O)N2CCn3c4c(c5cc(C)ccc53)CCCC42)cc1 (stereo not drawn) | 87.6 | 83.1 | 104.5 | -7.0 |
| Cc1ccc(S(=O)(=O)c2nc(-c3ccccc3)oc2SCC(=O)NC2CCCCC2)cc1 | 113.2 | 102.8 | 103.1 | -12.3 |
| Nc1c(Cl)cc(Cl)c2nsnc12 | 26.0 | 60.5 | . | -59.7 |
| COC(Cn1c(SCC(=O)c2ccccc2)nnc1-c1ccccc1)OC | 56.6 | 98.1 | 100.3 | -5.8 |
| COc1ccccc1-n1c(Cc2ccc(Cl)cc2)n[nH]c1=S | 64.9 | 78.5 | . | -6.4 |
| COc1ccc(NC(=O)CCc2nnc3n(CC(C)C)c(=O)c4ccccc4n23)cc1 | 86.1 | 103.1 | 98.9 | -31.2 |
| Cc1ccc(Cl)cc1N(C)C(=O)C1CCCN(c2ncnc3onc(-c4ccc(F)cc4)c23)C1 (stereo not drawn) | 79.7 | 93.6 | 106.3 | . |
| CNc1ccc2c(cc1=O)[C@@H](NC(C)=O)CCc1cc(OC)c(OC)c(OC)c1-2 | 95.9 | 105.7 | 102.5 | -55.6 |
| C=CCSc1ncc(Cl)c(C(=O)Nc2sc3c(c2C(=O)OC)CCCC3)n1 | . | . | 85.1* | -18.1 |
| CCOc1cccc(C(=O)Nc2ccc3oc(-c4ccncc4)nc3c2)c1 | 82.4 | 97.0 | 106.6 | -56.9 |
| c1ccc(OCCSc2nnc3sc4ccccc4n23)cc1 | 54.4 | 79.4 | 104.5 | . |
| CCc1oc2ccccc2c1/C=N/O | 99.0 | 107.4 | . | -5.4 |
| COc1ccc(NC(=O)c2cnc3sc(N4CCOCC4)nn3c2=O)c(OC)c1 | 91.3 | 85.8 | 97.0 | . |
| Oc1ccc2cc(Br)ccc2c1/C=N/n1cnnc1 | 88.1 | 113.4 | . | -36.6 |
| O=C(C1CCCN(c2nc3cccnc3s2)C1)N1CCN(c2ccccc2)CC1 (stereo not drawn) | . | . | 105.7 | -34.3 |
| COc1ccc(NC(=O)c2nnc(COCC(=O)N3CCN(c4ccc(OC)cc4)CC3)s2)cc1 | . | . | 103.1 | 3.4 |
| CCn1nc(-c2ccccc2)c(-c2ccccc2)c(C(=O)Nc2ccccc2C(N)=O)c1=O | 85.3 | 90.3 | 99.8 | -35.4 |
| O=C(NCc1ccc2c(c1)OCO2)C1CCN(S(=O)(=O)c2ccc(Br)s2)CC1 | 79.6 | 123.3 | 97.7 | . |
| O=C(O)CSCC(=O)N1CCN(Cc2c(F)cccc2Cl)CC1 | 93.4 | 92.8 | 107.6 | -2.4 |
| CCOC(=O)N1CCc2c(sc3c2c(=O)n(-c2ccc(Cl)cc2)c(=O)n3CC(=O)Nc2ccccc2)C1 | 84.9 | 99.9 | 100.3 | . |
| Cc1nc(C)c(-c2nnco2)cc1C(=O)NN | 96.2 | 99.4 | . | -36.7 |
| N=c1n(CCO)c2ccccc2n1CCOc1ccc(F)cc1 | 85.5 | 104.0 | 101.9 | -15.8 |
| Cc1ccc(N(C(C)C(=O)O)S(=O)(=O)c2cccnc2)cc1 (stereo not drawn) | 84.0 | 100.9 | . | -2.9 |
| CCOC(=O)c1cc(-c2ccccc2)n(-c2cccc(C(=O)Nc3ccc(OC)cc3)c2)c1C | 96.0 | 79.0 | 98.6 | . |
